Resorufin autofl = resorufin region autofluorescence. Compound fluorescence, resorufin region 547/598 nm, buffer; stronger effect = higher value. max dye-equivalent concentration, M. actives 0.04% (n = 59,000); active = above 10 nM dye equivalent; inconclusive = 1 to 10 nM; inactive = 1 nM or less; a few of its hits are not listed in these tables; also: highest value over a series up to 38 µM
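Tris 100 mM pH 8.0; compound added, 15 min RT; CCD imager read, ex 547 nm/em 598 nm; signal normalized to resorufin standard curve (six concentrations per plate) as dye-equivalent concentration.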
TSHR ag = TSH receptor (human) agonism; P16473; HEK293-CNG-TSHR cells (CNG channel as cAMP sensor), membrane potential dye, cAMP; Potency, µM (doses to about 57.1 µM), for inactives: top-dose activation, most hits filed as activators; actives 0.48% (n = 73,000); active = well fitted activation curve of enough size with the parental cells flat; inconclusive = any curve in the parental cells; inactive = parental cells flat and receptor cells flat or falling; also: potency is read from the fitted curve at half-maximal effect; % of control where 0% means no effect; weak receptor curves with flat parental cells got no call and are not listed
Target sequence (P16473 whole entry, looked up): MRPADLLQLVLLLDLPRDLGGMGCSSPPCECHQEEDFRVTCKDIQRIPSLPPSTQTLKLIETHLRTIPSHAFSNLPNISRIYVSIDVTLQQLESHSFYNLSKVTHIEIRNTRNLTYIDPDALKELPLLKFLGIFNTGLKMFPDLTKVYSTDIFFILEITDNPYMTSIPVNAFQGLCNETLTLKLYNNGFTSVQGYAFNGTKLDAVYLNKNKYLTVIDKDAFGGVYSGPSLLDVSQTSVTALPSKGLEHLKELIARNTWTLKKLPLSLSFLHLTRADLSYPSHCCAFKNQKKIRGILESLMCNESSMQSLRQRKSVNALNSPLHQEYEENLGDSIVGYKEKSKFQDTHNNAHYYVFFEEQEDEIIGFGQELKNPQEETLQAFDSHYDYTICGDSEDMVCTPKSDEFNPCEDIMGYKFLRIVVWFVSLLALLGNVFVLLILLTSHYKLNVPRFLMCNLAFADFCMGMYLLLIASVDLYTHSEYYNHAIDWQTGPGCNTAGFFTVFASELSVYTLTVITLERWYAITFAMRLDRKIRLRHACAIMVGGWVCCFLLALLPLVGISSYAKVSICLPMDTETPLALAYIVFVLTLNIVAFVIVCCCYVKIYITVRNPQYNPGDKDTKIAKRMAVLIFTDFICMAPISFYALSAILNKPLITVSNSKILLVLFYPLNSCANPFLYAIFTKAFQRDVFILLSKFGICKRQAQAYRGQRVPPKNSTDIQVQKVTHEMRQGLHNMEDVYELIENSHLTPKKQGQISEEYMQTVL
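HEK 293 cells stably expressing TSHR and a cAMP-gated CNG channel; parental CNG-only cells as counterscreen. Cells preloaded 60 min with membrane potential dye plus 100 uM RO 20-1724, then compound 30 min; fluorescence read at 590 nm.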
A647 fluor = compound autofluorescence in A647 spectral region | AID 592 | Compound fluorescence, A647 channel (570/671 nm), Tris buffer | 59,000 tested, under 10 active | max dye-equivalent concentration, M; active means above 1 µM dye equivalent; inconclusive means 0.1 to 1 µM; inactive means 0.1 µM or less;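 also: values scaled relative to a standard on each plate; highest value over a series up to 38 µM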
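Spectral profiling of library compounds in pH 8.0 Tris: 15 min room-temperature incubation, single ex/em pair (570/671 nm), response normalized to Alexa 647 equivalents.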
A488 autofl = compound autofluorescence in A488 spectral region; compound autofluorescence, A488 spectral region, dye equivalency; stronger effect = higher value; max dye equivalency, M; actives 0.1% (n = 59,000); AID 591; active = above 10 nM dye equivalent; inconclusive = 1 to 10 nM; inactive = 1 nM or less; about half of its hits are not listed in these tables;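 also: highest value over a series up to 38 µM; compound alone in buffer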
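Spectroscopic profiling in the A488 region: compounds in pH 8.0 Tris (100 mM), 15 min RT, CCD imaging with 480 nm excitation and 540 nm emission; responses normalized against A488 dye standards.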
AID923 = qHTS Assay for Allosteric/Competitive Inhibitors of Caspase-1: Spectroscopic Profiling in AFC Spectral Region. compound fluorescence, AFC spectral region (405/520 nm); almost no hit is shown here. Potency, µM (highest dose often 57.5 µM), for inactives: at the top dose fluorescence increase, usual class: activators. actives 1.1% (n = 75,000); active = well fitted activation curve with a large enough effect; inconclusive = small, poorly fitted or top-dose-only effect;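 also: potency is read from the fitted curve at half-maximal effect; 0% is about no effect; scaled to a free AFC standard on each plate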
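Titrations up to 57 uM read every 20 sec for 3 min (405/520 nm) with 50 nM caspase 1 and 5 uM Ac-WEHD-AFC, pH 7.5 HEPES buffer. Fluorescence-vs-time intercept gave baseline, scaled against on-plate AFC standard.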
Active calls of the source: *; i = inactive; u = inconclusive; x = no result given; & = joins results of further samples; [ ] = dose if it differs, or a comment. These rows are one share of the data (hit frequency here may not be typical).

SMILES	Resorufin autofl	TSHR ag	A647 fluor	A488 autofl	AID923
CCCN(CCC)CCCNS(=O)(=O)c1cc(Br)cc2c1N(C(C)=O)CC2	i	6%	1e-09	i	0.3%
Cc1ccccc1NC(=O)Cc1nc(CSc2nnc(C3CCCCC3)n2N)cs1	i	0%	1.7e-08	i	-0.8%
CCN(CC)S(=O)(=O)c1cccc(-c2nc3n(n2)Cc2ccccc2-3)c1	i	27%	8.2e-09	i	-3.9%
CCCCOc1ccc(-c2nnc(-c3ccco3)o2)cc1	i	u	3.6e-08	i	1.0%
COc1ccc(NC(=O)CSc2nc(-c3ccncc3)nn2CC(=O)N2CCCC2)cc1	i	-1%	2.1e-08	i	-0.4%
O=C(NCCc1ccc(Cl)cc1)C1CCN(C(=O)c2sccc2-n2cccc2)CC1	i	16%	4.5e-08	i	-1.1%
Cn1c(=O)oc2cc(S(=O)(=O)N3CCCC(C(=O)NCC4COc5ccccc5O4)C3)ccc21 (stereo not given)	x	2%	x	x	2.5%
CC(=O)Nc1nc(-c2cccs2)cs1	i	-2%	2.3e-08	i	-0.8%
O=C(Cn1nc(Cc2cccnc2)c2ccccc2c1=O)Nc1ccc2c(c1)OCO2	x	-2%	x	x	2.3%
O=C(CCN1C(=O)c2ccccc2C1=O)N1CCN(Cc2ccc(Cl)cc2Cl)CC1	x	u	x	x	1.2%
O=C(CN1C(=O)COc2ccccc21)NCCN1CCc2ccccc2C1	i	5%	2.3e-08	i	0.2%
CC1=C2C(=O)OC(c3ccoc3)C2(C)CCC1 (stereo not given)	i	u	1e-09	i	-0.3%
O=C(NCCCn1ccnc1)c1cn(-c2ccccc2)nc1-c1ccc(F)cc1	i	-1%	1.1e-08	i	-1.4%
Cc1cc(C)n2c(SCC(=O)N3CCN(S(=O)(=O)c4ccc(Cl)cc4)CC3)nnc2n1	i	-4%	1e-09	i	-1.1%
Cc1ccccc1OCc1nc(-c2ccccc2)no1	i	u	1e-09	i	0.8%
COCC(=O)Nc1nnc(SCC(=O)NCc2cccs2)s1	i	0%	7e-09	i	-0.5%
C=CCc1ccccc1OCC(O)CN1CCN(Cc2ccc3c(c2)OCO3)CC1 (stereo not given)	i	x	2.4e-08	i	-0.2%
CCNc1ccc(C(=O)OCC)cc1NC(=O)c1cc(S(=O)(=O)N2CCOCC2)ccc1C	i	20%	3.7e-09	i	-0.5%
C/C(N)=C(/C#N)C(=O)CSc1nnc(-c2ccc(OC(F)F)cc2)o1	i	-1%	1.2e-08	i	-1.4%
O=C(Nc1nccs1)c1cccc(NC(=O)C2CC2)c1	i	-6%	1e-09	i	-0.6%
N#C/C(=C\c1ccc(O)c(O)c1)C(=O)NCc1ccccc1	i	13%&28%	2.3e-09	i	0.9%
CCN(CCCNC(=O)CN(C)S(=O)(=O)c1cccc2nsnc12)c1cccc(C)c1	i	19%	1e-09	i	0.8%
CCN(C(=O)c1cn(CC)c(=O)c2cc(OC)c(OC)cc12)c1ccccc1C	i	13%[11.4 µM]	1e-09	i	1.4%
O=c1c2c3nc4ccccc4nc3n(-c3cccc(F)c3)c2ncn1Cc1ccc2c(c1)OCO2	i	11%	1e-09	i	1.8%
COc1ccc(OC)c(C2CC(=O)N3CN(c4ccccc4)CSC3=C2C#N)c1 (stereo not given)	x	-13%	x	x	2.9%
(next part)
SMILES	Resorufin autofl	TSHR ag	A647 fluor	A488 autofl	AID923
CCN(CC)CCCNC(=O)c1cn(CCOC)c(=O)c2c1c1ccccc1n2C	i	u	6.3e-09	i	-1.1%
COc1ccc(NC(=O)c2ccc(CN3CCN(c4ccccc4)CC3)cc2)cc1OC	x	7%	x	x	3.1%
CC(=O)OC1CC2(C)C(=O)CCC2C2CCc3cc(O)ccc3C12 (stereo not given)	i	u	8.6e-09	i	-1.2%
CCCCOc1ccc(C(=O)NCc2ccccn2)cc1	i	4%	3.6e-09	i	-0.7%
COc1ccccc1C(=O)NCC(=O)n1nc(C)cc1C	i	x	8e-08	i	x
CCOc1cc(/C=N/n2cnnc2)ccc1O	x	5%	x	x	2.1%
O=C(CSc1ncnc2c1oc1ccccc12)N1CCN(c2ccccc2)CC1	i	5%	1.6e-08	i	-1.1%
Cc1ccc(S(=O)(=O)Nc2nc(C)cc(NCCN)n2)cc1	x	2%[11.4 µM]	x	x	0.2%
O=C(NCCSCc1ccco1)Nc1ccccc1	x	24%	x	x	-2.1%
CC(=O)N(C(C)=O)c1c(N2CCOCC2)c2ccccc2oc1=O	i	1%	1.7e-09	i	0.7%
Cc1cc(C)n(C(=O)C23CC4CC(CC(C4)C2)C3)n1	i	u	5.5e-09	i	-1.8%
CCOc1ccc(C2CC(c3cccc(C)c3)n3nc(N)nc3N2)cc1 (stereo not given)	x	3%	x	x	3.0%
COc1ccc(CCNS(=O)(=O)c2ccc3c(c2)OCCO3)cc1	i	30%	1e-09	i	-0.9%
CCOC(=O)C(C)n1cnc2c(nnn2Cc2ccc(Cl)cc2)c1=O (stereo not given)	i	1%	1e-09	i	-0.2%
OCCN=C(c1ccccc1)C12CN3CN(CN(C3)C1)C2	i	x	1e-09	i	x
CCOC(=O)CCN1C(=O)[C@H]2[C@H]3[C@H](O)[C@H](O)C/C(=N/O[C@@H]4O[C@@H](COC(C)=O)[C@@H](OC(C)=O)[C@@H](OC(C)=O)[C@H]4OC(C)=O)[C@H]3CC[C@@H]2C1=O	x	-2%[11.4 µM]	x	x	2.9%[11.5 µM]
CC(=O)c1cccc(NC(=O)c2ccc(NS(=O)(=O)c3c(C)noc3C)cc2)c1	i	-2%	1.2e-09	i	1.4%
CCOC(=O)OCC1OC(c2ccccc2)C=CC1Oc1ccc(F)cc1C (stereo not given)	x	10%[11.4 µM]	x	x	-2.1%[11.5 µM]
COC(=O)c1coc(-c2ccc(C)cc2)c1C(=O)OC	x	17%	x	x	1.4%
CC(C)(C)C1CCC(=O)C(C2(O)C(=O)Nc3ccccc32)C1 (stereo not given)	i	0%	2e-09	i	1.7%
CCOC(=O)C1=C(C)NC(=O)NC1c1ccc(OC(=O)c2ccco2)c(OC)c1 (stereo not given)	x	10%[11.4 µM]	x	x	-0.2%
CN(Cc1ccco1)c1ncnc2ccc(-c3cccc(C#N)c3)cc12	i	16%	7.9e-09	i	0.4%
Cc1nc2c3c4c(sc3n3c(SCC(=O)NCc5ccco5)nnc3n2n1)COC(C)(C)C4	i	1%	1e-09	i	1.4%
O=C(COc1ccccc1)Nc1nc2ccccc2[nH]1	i	-2%	1e-09	i	1.1%
Nc1ncnc2c1ncn2[C@H]1O[C@@H](C(=O)OCCO)[C@@H](O)[C@H]1O	i	14%[11.4 µM]	5.3e-08	i	1.1%[11.5 µM]

Continued, overlapping the part above by 2 compounds.
SMILES	Resorufin autofl	TSHR ag	A647 fluor	A488 autofl	AID923
O=C(COc1ccccc1)Nc1nc2ccccc2[nH]1	i	-2%	1e-09	i	1.1%
Nc1ncnc2c1ncn2[C@H]1O[C@@H](C(=O)OCCO)[C@@H](O)[C@H]1O	i	14%[11.4 µM]	5.3e-08	i	1.1%[11.5 µM]
COc1ccccc1CNc1ccnc(-c2ccoc2)n1	i	x	2.4e-08	i	4.0%
COC(=O)C(C)NS(=O)(=O)c1ccc(NC(C)=O)cc1 (stereo not given)	i	2%	1e-09	i	0.0%
Cc1nc(NC(=O)c2ccccc2)sc1-c1csc(N)n1	i	-12%	1e-09	i	0.5%
O=C(NCCc1ccccc1)C1CCN(c2nc3ccccc3o2)CC1	i	7%	1.3e-09	i	-2.6%
CCC(Sc1nc(C)cc(=O)[nH]1)C(=O)Nc1ccc(Cl)cn1 (stereo not given)	x	6%	x	x	1.8%
CC(C)(C)n1ncc2c(=O)n(CC(=O)NCc3ccccc3)cnc21	i	x	3e-09	i	-0.4%
C=CCn1c2ccccc2c2nnc(SCCCn3c(=O)[nH]c4ccccc43)nc21	x	u	x	x	2.1%
O=C(Nc1ccc2c(c1)OCO2)c1ccc(CN2CCOCC2)cc1	x	-2%	x	x	-0.2%
O=C(CN1CCOCCOCCN(CC(=O)Nc2ccccc2)CCOCC1)Nc1ccccc1	i	2%	2.4e-09	i	1.4%
O=C(CSc1nnc2ccccn12)NC(=O)NC1CCCCC1	i	0%	1.1e-09	i	-0.9%
Nc1ncnc2c1nc(Br)n2[C@@H]1O[C@H]2COP(=O)(O)O[C@@H]2[C@H]1O	i	u	1e-09	i	-1.2%
Cc1ccc(NC(=O)Cn2cccc2)cc1C	i	u	2.9e-08	i	-0.4%
COc1ccc(NS(=O)(=O)c2cc(-c3nnnn3C)ccc2OC)cc1	x	5%	x	x	0.9%
CCN1C(=O)C(O)(CC(=O)c2cc(C)ccc2C)c2ccccc21 (stereo not given)	i	8%	1e-09	i	0.0%
O=C(c1ccncc1)N(Cc1ccco1)Cc1cc2ccccc2[nH]c1=O	i	4%	9.1e-09	i	0.0%
COc1cccc(Oc2cnc(N)nc2-c2ccc(OC)cc2O)c1	i	x	2.6e-08	i	4.1%
O=c1ccc2ccc(O)c(O)c2o1	i	7%	2.9e-08	i	-0.8%
Cc1cc(N(C)C)nc(SC(C)C)n1	i	u	1.2e-08	i	-1.4%
CCOc1cc(C)c(C(C)C)cc1S(=O)(=O)N1CC(C)OC(C)C1 (stereo not given)	i	x	1e-09	i	-1.2%
COc1ccc(C)cc1-n1nnnc1SCc1cc(=O)n2cc(C)ccc2n1	i	3%	1.1e-08	i	-2.5%
COc1ccccc1CNc1ncnc2ccc(-c3ccc(C(=O)N(C)C)cc3)cc12	i	x	1e-09	i	0.3%
CCCCn1c(SCc2ccc(Cl)cc2)nc2c1c(=O)[nH]c(=O)n2C	i	u	2.1e-08	i	0.0%
Nc1ccc(CN2CCN(c3ccc4ccccc4n3)CC2)cc1	i	26%	2.6e-08	i	-0.4%
O=C(Cc1ccc(Cl)c(Cl)c1)OCC(=O)c1ccc[nH]1	i	-7%	3e-08	i	0.3%
CSc1ccc(S(=O)(=O)NCc2ccc(Cl)cc2)cc1	i	22%	5.7e-09	i	0.7%

Rewritten field by field: entries from further up.
COc1ccccc1CNc1ccnc(-c2ccoc2)n1
  Resorufin autofl: i	TSHR ag: x	A647 fluor: 2.4e-08	A488 autofl: i	AID923: 4.0%

O=C(c1ccncc1)N(Cc1ccco1)Cc1cc2ccccc2[nH]c1=O
  Resorufin autofl: i	TSHR ag: 4%	A647 fluor: 9.1e-09	A488 autofl: i	AID923: 0.0%

CCC(Sc1nc(C)cc(=O)[nH]1)C(=O)Nc1ccc(Cl)cn1 (stereo not given)
  Resorufin autofl: x	TSHR ag: 6%	A647 fluor: x	A488 autofl: x	AID923: 1.8%

COc1ccc(NS(=O)(=O)c2cc(-c3nnnn3C)ccc2OC)cc1
  Resorufin autofl: x	TSHR ag: 5%	A647 fluor: x	A488 autofl: x	AID923: 0.9%

Next part
SMILES	Resorufin autofl	TSHR ag	A647 fluor	A488 autofl	AID923
CCOCCCNC(=O)C1CCCN1S(=O)(=O)c1ccc(Cl)cc1 (stereo not given)	i	3%	3.9e-08	i	1.2%
COCOc1ccc(Br)cc1C(=O)/C=C\c1ccc2c(c1)OCO2	x	15%[11.4 µM]	x	x	1.1%[11.5 µM]
O=C(Nc1ccc(N2CCN(C(=O)c3ccc(Cl)cc3)CC2)cc1)c1cccnc1	i	-20%	6.3e-09	i	-1.7%
COc1ccc(OC)c(S(=O)(=O)N(C)CC(=O)N2CCN(c3cccc(Cl)c3)CC2)c1	i	-11%	2.2e-08	i	-1.6%
COC(=O)CCSCC(=O)Nc1nnc(C)s1	x	-1%	x	x	-1.7%
CCOc1cccc(C2C(C(=O)c3ccc(C)o3)=C(O)C(=O)N2Cc2ccncc2)c1 (stereo not given)	i	-1%	6.6e-09	i	1.0%
COc1ccccc1Oc1coc2cc(OC(=O)N3CCOCC3)ccc2c1=O	i	x	4.6e-09	i	-1.4%
CCN(CC)C(=O)COc1ccc(CC(=O)O)cc1OC	x	2%	x	x	0.1%
CCOC(=O)c1cc2occc2n1CC(=O)N1CCOCC1	i	2%	1.9e-08	i	2.0%

Bioassay records from PubChem.
